HSD17B inhib: HSD17B dehydrogenase inhibition; 7.6% of 75,000 active; AID 893; Potency, µM (series often up to 57.1 µM), inactives show at the highest dose activity change, negative = inhibition, usual class: inhibitors; recombinant HSD17B10, NADH fluorescence kinetic; many of its hits are not listed in these tables; active = well fitted inhibition curve with a large enough effect; inconclusive = small, poorly fitted or top-dose-only effect; inactive = no such curve, though single readings can be large or run the other way;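 also: the protocol describes HADH2 (HSD17B10) and not the HSD17B4 of the title; nearly all actives have a fitted effect of over 70% in size; most hits overshoot -100% by far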
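Enzyme plus compound, 15 min room temperature; substrate mix added (NAD+ 1 mM, beta-hydroxybutyryl-CoA 90 uM final); plates read kinetically for NADH fluorescence. HADH2 was His-tagged, E. coli-derived, 20 nM.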
Active calls of the source: *; ? = inconclusive; & = joins results of further samples; [ ] = another dose, or the depositor's remark. % is scaled to controls: 0 for no effect and ±100 for the full control effect; potency is read from the fitted curve at half-maximal effect. Some of the compounds tested. The share of hits here may be higher or lower than overall.

SMILES	HSD17B inhib
O=C(OCCN=C1NS(=O)(=O)c2ccccc21)C1CC(=O)N(c2ccc(Cl)cc2)C1 (stereo unspecified)	-16%
Cc1oc(-c2ccccc2F)nc1CS(=O)(=O)CC(=O)NCCCN1CCc2ccccc2C1	-2%
O=C(CNS(=O)(=O)c1ccc(Br)s1)N1CCC(N2CCCCC2)CC1	4%
O=c1cc(NCc2ccccc2)c2ccccc2o1	?
N=c1ccccn1CC(O)COc1ccccc1 (stereo unspecified)	-10%
O=C1CC(NC23CC4CC(CC(C4)C2)C3)C(=O)N1c1ccc2c(c1)OCO2 (stereo unspecified)	7%
CCOCCN1CCN(c2c(C)c(C)nc3cc(-c4cc(OC)cc(OC)c4)nn23)CC1	25µM*
CCn1nnc(NC(=O)c2ccc(-c3ccc(Cl)cc3)o2)n1	20µM*
O=C(O)c1ccc(NS(=O)(=O)c2ccsc2C(=O)O)cc1	-18%
Cn1c(=O)c2c(nc(CN3CCC(C(N)=O)CC3)n2CCCc2ccccc2)n(C)c1=O	6%
Brc1ccc(NCc2nnc3n2CCCCC3)cc1	7%
COc1cccc(NC(=O)N2CCCC2C(=O)NCC(C)C)c1 (stereo unspecified)	5%
Cc1cc(N2CCN(c3ccccc3)CC2)nc(-c2ccccc2)n1	?
CC(C)CCNC(=O)C(c1ccco1)N(CC1CCCO1)C(=O)Cn1nnc2ccccc21 (stereo unspecified)	9%
COC(=O)[C@@]1(Cc2ccccc2)[C@H]2c3cc(C(=O)N4CCCC4)n(Cc4ccsc4Br)c3C[C@H]2CN1C(=O)c1ccccc1	3%
CCc1cc(=O)n2[nH]c(C)c(-c3ccccc3OC)c2n1	?
CC(C)c1nnc(NC(=O)c2ccc(S(=O)(=O)N3CCOCC3)cc2)s1	-5%
CCCOC(=O)NC(CC)COC(=O)Nc1cccc(C)c1C (stereo unspecified)	1%
CC1(C)CC(=O)C(C=Nc2cccnc2)=C(O)C1	14%
O=C(O)C[C@H]1OCC=C2C[N@@+]3([O-])CC[C@]45c6ccccc6N[C@@H]4[C@@H]1[C@H]2C[C@H]53	5%[11.4 µM]
Nc1c(S(=O)(=O)O)cc(Nc2ccc(Nc3nc(Cl)nc(Nc4ccc(S(=O)(=O)O)cc4)n3)c(S(=O)(=O)O)c2)c2c1C(=O)c1ccccc1C2=O	1.6µM*
Cn1nc(C(=O)Nc2cccc(C(F)(F)F)c2)ccc1=O	7%
CC(=O)c1cc(F)c(N2CCN(CCC#N)CC2)cc1C	5%
COc1cc(NC(=O)c2noc3c2CCCC3)c(OC)cc1Cl	-5%
CC(=O)c1cccc(NC(=O)C=C(C)C)c1	-5%
CCOc1ccc(NC(=O)c2ccco2)cc1	9%
CN1CCN(c2nc(-c3cccs3)cc(C(F)(F)F)n2)CC1	-2%
COC(=O)c1ccccc1NC(=O)CSc1nc(-c2ccco2)cc(C(F)(F)F)n1	-12%
CCOC(=O)Cn1c(=O)c2c(nc(N3CCCCC3)n2C)n(C)c1=O	-12%
CNC(=O)C(Sc1ccccc1)c1ccccc1 (stereo unspecified)	7%
CCc1nnc(NC(=O)C2CCN(c3cnccn3)CC2)s1	-1%
COc1ccc(N2C(=O)C3CCCN3C2c2cccc(F)c2)cc1Cl (stereo unspecified)	-8%
Nc1nonc1-c1nc2ccccc2n1CC(=O)N1CCN(c2ccc(F)cc2)CC1	-6%
OCCN1CCN(c2nc(-c3ccccc3)nc3c2oc2ccccc23)CC1	?
CC(c1ccco1)N(C(=O)c1ccc(S(=O)(=O)N2CCCCC2)cc1)c1ccccn1 (stereo unspecified)	-9%
Cc1ccc(C2(C(F)(F)F)NC(=O)N3CCCN=C3S2)cc1 (stereo unspecified)	-4%
CCC1CCCN1Cn1cnc2c([nH]c3ccccc32)c1=O (stereo unspecified)	32µM*
CCOCCn1c(SCCCc2ccccc2)nc2c1c(=O)[nH]c(=O)n2C	-19%
CN1C(=O)c2ccc(NC(=O)c3c(F)c(F)c(F)c(F)c3F)cc2C1=O	13µM*
COc1ccccc1CN1CCCC(C(=O)N(C)Cc2ccccc2)C1 (stereo unspecified)	6%
CC1(C)CC(C2N3CC4(C)CN2CC(C)(C3)C4=O)CCO1 (stereo unspecified)	6%
COC(=O)C1=C(C)Nc2nnnn2C1c1ccc(Cl)cc1Cl (stereo unspecified)	0%
COc1cccc(CNC(=O)C2CCN(S(=O)(=O)c3ccc(F)cc3)CC2)c1	-1%
CCOC(=O)/C=C1\SCC(=O)N1Cc1nnc(-c2ccccc2Br)o1	?
Cn1c(=O)c2c(ncn2CC(=O)N2CCN(c3ccc(F)cc3)CC2)n(C)c1=O	2%
Cc1ccc2cc(CN(CC3CCCO3)C(=O)C(C)C)c(=O)[nH]c2c1 (stereo unspecified)	?
NS(=O)(=O)Cc1noc2ccccc12	-3%
CC(C)(C)SCCNC(=O)CSc1ccccc1	1%
CCOC(=O)c1cccc(NC(=O)C2CCCN(S(=O)(=O)c3c(C)nn(C)c3C)C2)c1 (stereo unspecified)	10%
COc1ccc(S(=O)(=O)Cc2ccc(C(=O)N3CCN(c4ccccc4)CC3)o2)cc1	1%

Carrying on:
SMILES	HSD17B inhib
CCOC(=O)CSc1nc2sc3c(c2c(=O)n1CC)CC(C)(C)OC3	-9%
CC(=O)c1c(C)nc(-c2ccc(Cl)cc2Cl)n1O	3%
CCCn1c(C)nc2c(NC(C)CCCN(CC)CC)nc(C)nc21 (stereo unspecified)	2%
COc1ccc(COC(=O)C2=C(C)NC(=O)NC2c2ccc(O)c(OC)c2)cc1 (stereo unspecified)	-24%
CCOC(=O)CSc1nnc(CNC(=O)Cc2ccccc2)n1C	0%
COc1ccc(C(O)c2nc3ccccc3n2C)cc1OC (stereo unspecified)	9%
Cc1ccc(Cl)cc1N1CCN(CC(=O)Nc2ccc3[nH]c(=O)[nH]c3c2)CC1	-8%
C=CCn1c(SCC(=O)OCc2ccccc2)nc2c1c(=O)n(C)c(=O)n2C	-6%
C/C(=C1/SC(=S)N(CCC(=O)O)C1=O)c1ccc(O)cc1	?
c1coc(CNCC2OCCc3ccccc32)c1 (stereo unspecified)	12%
CC(C)c1nc(SCC(=O)N2CCN(c3ccccc3)CC2)c2c(=O)n(C)c(=O)n(C)c2n1	31%[activator]
Cc1nc2nc(Cc3ccccc3)[nH]n2c(=O)c1Cl	3%
Cc1cc(C)nc(NC(=O)c2cc3ccccc3o2)n1	-1%
CCn1c(=N)n(CC(=O)C23CC4CC(CC(C4)C2)C3)c2ccccc21	-22%
CCCSc1nc2c(cnn2-c2ccc(Cl)cc2)c(=O)[nH]1	-3%
CCC(=O)N(Cc1cc(=O)[nH]c2ccccc12)c1cccc(C)c1	-17%
NC(=O)c1cnn2c1NC(c1ccc(F)cc1)CC2C(F)(F)F (stereo unspecified)	5%
COC(=O)c1[nH]c2cccc(OC)c2c1NC(=O)CN1CCN(c2cccc(OC)c2)C(C)C1 (stereo unspecified)	25µM*
Cc1ccc2oc(=O)c3cnn(CC(=O)N(CCC(C)C)Cc4ccco4)c3c2c1	-1%
CCOC(=O)c1cnn(-c2ncnc3sc(CC)cc23)c1N	-8%
CSc1nc(C2CC2)cc(-c2cccs2)c1C#N	32µM*
CCOc1ccc(/C=N/n2cnnc2)cc1	-1%
Cc1cccc(C)c1NC(=O)C1CC(=O)N(C(C)C)C1 (stereo unspecified)	5%
COc1ccc(-n2c(=O)c(-c3cccc(C#N)c3)nc3cnc(N4CCNCC4)nc32)cc1	-21%
CCCNC(=O)Cc1cc(=O)[nH]c(=O)[nH]1	?
CCOC(=O)N1CCC(NC(=O)CCc2c(C)nc3c(c(C)nn3-c3ccccc3)c2C)CC1	?
OC[C@@H]1O[C@@H](n2cnc3c(NC4CCCC4)ncnc32)[C@H](O)[C@H]1O	-8%
CCCCNC(=O)OCCNC(=O)Oc1cccc(C)c1	-3%
COc1ccc(S(=O)(=O)Nc2ccc(C)cc2)cc1OC	-1%
O=C(Cn1ccc(=O)[nH]c1=O)Nc1ccc(C(=O)O)c(O)c1	0%[11.4 µM]

Five entries from above, in markdown:
| SMILES | HSD17B inhib |
| --- | --- |
| O=C(Cn1ccc(=O)[nH]c1=O)Nc1ccc(C(=O)O)c(O)c1 | 0%[11.4 µM] |
| Cc1cccc(C)c1NC(=O)C1CC(=O)N(C(C)C)C1 (stereo unspecified) | 5% |
| COc1ccc(-n2c(=O)c(-c3cccc(C#N)c3)nc3cnc(N4CCNCC4)nc32)cc1 | -21% |
| CSc1nc(C2CC2)cc(-c2cccs2)c1C#N | 32µM* |
| OC[C@@H]1O[C@@H](n2cnc3c(NC4CCCC4)ncnc32)[C@H](O)[C@H]1O | -8% |

Looked up by structure from the entries so far (2):
SMILES	HSD17B inhib
OC[C@@H]1O[C@@H](n2cnc3c(NC4CCCC4)ncnc32)[C@H](O)[C@H]1O	-8%
CCOC(=O)N1CCC(NC(=O)CCc2c(C)nc3c(c(C)nn3-c3ccccc3)c2C)CC1	?

(cont.)
SMILES	HSD17B inhib
Cc1cccc(NC2=NC(C)(C)N=C(N)N2)c1C	6%
COCCNc1ncnc2ccc(-c3ccccc3C(F)(F)F)cc12	?
CC1=C(C#N)C2C(/C1=N/O)C2(C)C (stereo unspecified)	8%
CCCCn1nnnc1SCC(=O)N1CCN(C(=O)c2ccco2)CC1	12%
C=CC(C)(O)CCC=C(C)C (stereo unspecified)	9%
COc1ccc2cc3cc(C(=O)NCc4ccccn4)oc3nc2c1	25µM*
COc1nc(Nc2ccc(-c3nc4ccccc4o3)cc2)nc(N2CCOCC2)n1	7.9µM*
CCC(=O)Oc1ccc(-c2nc(-c3cccnc3)no2)cc1	1%
COc1ccc(C(=O)n2nc(-c3ccccc3)nc2N)cc1OC	-11%
Cc1cccc(OCC(=O)Nc2cc(C)c(C)cc2O)c1	-2%
CC(C)(C)n1nc2c(c1NC(=O)COc1ccc(Cl)cc1)CSC2	-19%
Cn1c(CCCCCN)nc2ccccc21	15%
CCOC(=O)c1cc(NC(=O)Nc2ccc(OC)c(OC)c2)c(C)nc1C	1%
O=c1c(-c2cccc(Cl)c2)nc2cncnc2n1C1CC1	-4%
CC(C)(C)n1ncc2c(=O)n(CC(=O)c3ccc(Cl)cc3)cnc21	6%
CCOC(=O)c1ccc(S(=O)(=O)N2CCN(CC3CC=CCC3)CC2)cc1 (stereo unspecified)	-1%
Cn1c2ccccc2c2c(C(=O)NCCCN3CCCC3=O)cn(C3CCCCC3)c(=O)c21	25µM*
O=C(CCn1nc(-c2ccc(Cl)cc2)ccc1=O)N1CCOCC1	?
COCCNC(=O)c1cc(-c2ccc(OC)c(OC)c2)on1	2%
N#C/C=C1/NC(=O)c2ccccc2S1	-1%
FC(F)(F)c1nc2nc(Cl)c(Cl)nc2n1CCCN1CCOCC1	?
Cc1cc(Cl)ccc1OCC(=O)Nc1ccccc1CO	2%
O=C(NCCc1c[nH]c2ccccc12)[C@@H]1C[C@H]1[C@@H](NP(=O)(c1ccccc1)c1ccccc1)c1ccccc1	18%
CCOC(=O)CNC(=O)CSc1ncnc2c1cnn2-c1ccc(C)cc1	-170%
COc1cc(C2NC(=O)NC(C)=C2C(=O)OC2CCCCC2)cc(Br)c1O (stereo unspecified)	-12%
CCOC(=O)N1CCN(C(=O)CSc2nc3ccccc3c(=O)n2-c2ccccc2)CC1	-8%
COc1cc(-c2ccc(N=Nc3ccc4c(S(=O)(=O)O)cc(S(=O)(=O)O)c(N)c4c3O)c(OC)c2)ccc1N=Nc1ccc2c(S(=O)(=O)O)cc(S(=O)(=O)O)c(N)c2c1O	2µM*
COCC(=O)NCCc1ccc(S(N)(=O)=O)cc1	17%
COc1ccc(S(=O)(=O)N2CCN(C(=O)c3c(C)nn(-c4ccccc4)c3Cl)CC2)cc1	3%
C=CCCCCCCCCCCCC(O)CC(O)CO (stereo unspecified) (tested in a mixture with another compound)	-3%

Arranged by number of heavy atoms (largest number first): some entries from above.
SMILES	HSD17B inhib
COc1cc(-c2ccc(N=Nc3ccc4c(S(=O)(=O)O)cc(S(=O)(=O)O)c(N)c4c3O)c(OC)c2)ccc1N=Nc1ccc2c(S(=O)(=O)O)cc(S(=O)(=O)O)c(N)c2c1O	2µM*
CCOC(=O)CNC(=O)CSc1ncnc2c1cnn2-c1ccc(C)cc1	-170%
FC(F)(F)c1nc2nc(Cl)c(Cl)nc2n1CCCN1CCOCC1	?

Continued:
SMILES	HSD17B inhib
CCOC(=O)N1CCC(NC(=O)Cn2cc3c(n2)CCCCC3)CC1	7%
Cc1cc(C)c2c(c1)cc(C)c1nnc(SCC(=O)Nc3cc(C)on3)n12	-5%
C[C@@H](C(=O)NCc1ccccc1)[C@@H]1C[C@@]1(C)[C@@H](NC(=O)OCc1ccccc1)c1ccccc1	0%
O=C(Nc1ccc(N2CCN(C(=O)c3ccco3)CC2)cc1)c1cccs1	-4%
COc1ccc(Cn2nnnc2C(c2ccccc2Cl)N2CCN(C3CCCC3)CC2)cc1 (stereo unspecified)	7%
CCCCN(CC)S(=O)(=O)N1CCC(C(=O)NCCCN2CCOCC2)CC1	8%
CCCOc1ccc(/C(O)=C2/C(=O)C(=O)N(c3cc(C)on3)C2c2ccc(C(=O)OC)cc2)cc1 (stereo unspecified)	-1%
CC(N)=NCCCC[C@H](N)C(=O)O	22%&5%
Cc1cc(NS(=O)(=O)c2ccc(Br)s2)no1	11%
Cn1c(=O)c2c(nc(CN3CCN(c4ccccc4)CC3)n2Cc2c(F)cccc2Cl)n(C)c1=O	5%
O=C(OCCN1CCCCC1)c1cc2ccccc2o1	-9%
COc1cccc(C(=O)N2CCN(C3CCC(c4ccccc4)CC3)CC2)c1OC (stereo unspecified)	6%
COc1ccccc1N(CC(N)=O)S(=O)(=O)c1ccc(C)cc1	10%
